hNpr1 antagonist = antagonists of human natriuretic peptide receptor Npr1; Potency, µM (top dose mostly 46.3 µM), inactives show top-dose activity change, negative = inhibition, usual class: inhibitors; HEK293 hNpr1 GloSensor cGMP, ANP-stimulated luminescence; actives 1.6% (n = 76,000); AID 1347048; active = well fitted inhibition curve with a large enough effect; inconclusive = small, poorly fitted or top-dose-only effect; inactive = no such curve, though single readings can be large or run the other way;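 note: nearly all actives have a fitted effect of over 60% in size; nearly all hits also lower the signal before the agonist is added; a reference antagonist and vehicle were the controls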
Target sequence (P16066 whole entry, looked up): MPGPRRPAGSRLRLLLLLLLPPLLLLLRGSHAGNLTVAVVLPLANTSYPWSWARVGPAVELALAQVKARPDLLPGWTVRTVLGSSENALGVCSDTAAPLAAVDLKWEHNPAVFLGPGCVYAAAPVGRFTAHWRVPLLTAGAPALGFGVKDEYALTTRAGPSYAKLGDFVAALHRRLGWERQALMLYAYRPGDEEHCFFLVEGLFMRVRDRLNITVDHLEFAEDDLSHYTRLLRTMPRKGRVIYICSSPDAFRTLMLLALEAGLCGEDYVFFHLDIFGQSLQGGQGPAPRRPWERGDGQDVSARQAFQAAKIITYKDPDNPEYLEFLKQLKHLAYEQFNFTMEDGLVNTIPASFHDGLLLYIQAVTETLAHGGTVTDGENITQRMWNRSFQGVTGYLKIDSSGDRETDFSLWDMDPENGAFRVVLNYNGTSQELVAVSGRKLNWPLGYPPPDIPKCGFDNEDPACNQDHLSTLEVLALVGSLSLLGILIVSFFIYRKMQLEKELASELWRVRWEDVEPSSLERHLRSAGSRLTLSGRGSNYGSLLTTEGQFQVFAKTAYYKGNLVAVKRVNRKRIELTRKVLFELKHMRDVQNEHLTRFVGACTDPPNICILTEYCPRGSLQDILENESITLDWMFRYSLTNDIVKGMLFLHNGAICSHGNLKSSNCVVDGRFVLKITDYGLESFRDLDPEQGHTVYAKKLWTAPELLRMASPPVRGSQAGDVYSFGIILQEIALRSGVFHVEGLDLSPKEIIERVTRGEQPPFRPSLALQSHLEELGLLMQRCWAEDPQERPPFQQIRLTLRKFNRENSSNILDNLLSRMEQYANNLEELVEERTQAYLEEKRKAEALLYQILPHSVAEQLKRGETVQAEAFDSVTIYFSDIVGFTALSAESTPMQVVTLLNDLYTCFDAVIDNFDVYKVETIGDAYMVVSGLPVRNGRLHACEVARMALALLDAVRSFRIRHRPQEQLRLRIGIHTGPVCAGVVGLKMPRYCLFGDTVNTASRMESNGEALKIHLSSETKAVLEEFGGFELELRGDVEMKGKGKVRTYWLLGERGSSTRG
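HEK293 cells stably expressing human Npr1 and cGMP GloSensor pGS-40F, loaded 2 h with 2% GloSensor reagent, given compound 30 min at room temperature. Luminescence read before and 20 min after 0.1 nM hNppA.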
* marks the source's active call; other numbers are inactive results; ? = inconclusive; [ ] = remark or other dose. % is set by controls: 0 for no effect and ±100 for the full control effect; potency is the fitted concentration of half-maximal effect.

SMILES	hNpr1 antagonist
O=C(c1cc(F)ccc1F)N1CCCC(c2nn[nH]n2)C1 (configuration not stated)	-3%
COc1ccc(CC(=O)N2C[C@@H](CO)[C@H](c3ccccn3)C2)cc1	5%
COCCN1C(=O)CCc2cc(NC(=O)c3ccccc3C)ccc21	0%
CCc1noc(-c2cn(C3CCN(C(=O)c4ccc(Cl)cc4)CC3)nn2)n1	-1%
N[C@@H]1CC[C@H](C(=O)NCc2csc(N3CCCC3)n2)C1	1%
CCNc1ncc(C(=O)NC(C)c2cnn(-c3ccccc3C)c2C)cn1 (configuration not stated)	-24%
Nc1nc2c(c(C(=O)N[C@H](c3ccccn3)C3CC(O)C3)n1)CCCC2 (some centres not stated)	0%
COc1ccc(CCc2nc(C3CC(=O)N(Cc4ccccc4OC)C3)no2)cc1 (configuration not stated)	-7%
CC(=O)N1C[C@@H]2CCCN3CCC[C@@H]([C@H]23)[C@H]1CCCC(=O)NCCN(C)C1CCCCC1	1%
CCc1cccc2c(C(CC(=O)NCc3ccco3)c3cccc([N+](=O)[O-])c3)c[nH]c12 (configuration not stated)	-5%
Cc1ccccc1NC(=O)N1CCOCC1CC(=O)NCc1cccnc1 (configuration not stated)	-2%
Cc1ccc(Cl)cc1N1CCN(C(=O)CCn2ccn3nc4c(c3c2=O)CCCC4)CC1	?
CN(CCCO)C(=O)c1cccc(CC2CCNCC2)c1	-1%
COCCC1(CO)CCCN(C(=O)c2cc(C3CC3)[nH]n2)C1 (configuration not stated)	0%
COc1ccc(F)c(C(=O)N2CCC3(CC2)[C@H](O)C[C@@H]3O)c1F	-11%
Cc1ccc(-c2cc(N3CCCN(C(=O)c4ccccc4F)CC3)n[nH]2)cc1C	-24%
COc1ccc(C(=O)N2CC(=O)N(C3CCCCC3)CC(OCc3ccncc3)C2)c(OC)c1 (configuration not stated)	-1%
COCCc1noc(-c2ccc(N(C)CCc3cnn(C)c3)nc2)n1	1%
CN1CCC(N2CC[C@@H]3[C@H]2C(=O)NC[C@H](CCC(=O)Nc2ccccc2)N3C)CC1	1%[70.6 µM]
Cc1ncc2c(c1CNC(=O)COc1ccc(F)cc1)CCNC2	3%
COCCOc1cc(-c2noc([C@@H]3CCCN3C3CCN(C(C)=O)CC3)n2)ccn1	-3%[70.6 µM]
CN(CCCc1cnn(C)c1)C(=O)[C@H]1CNC[C@@H](C(=O)N2CCOCC2)C1	5%
COc1ccc(C(=O)N2CCCn3nc(C)c(-c4ccccc4C(C)C)c32)cn1	-1%[70.6 µM]
COc1ccc(-c2cc(C(=O)NCc3c(C)cc(C)[nH]c3=O)c3c(c2)N(C)CCO3)cn1	-2%[70.6 µM]
Cn1nccc1-c1ncc2c(n1)OCCN(Cc1ccc(F)cc1F)C2=O	35µM*
COC1CN(c2ccc(C)cc2)C12CCN(C(=O)C1CCCC1)CC2 (configuration not stated)	2%
CC(C)c1noc([C@@H]2C[C@H]3C(=O)NCCCCCCN(C(=O)CCC4CCCC4)[C@H]3C2)n1	4%
Cc1ccc(C(=O)N2CC(CO)C3(CCNCC3)C2)c(C)c1 (configuration not stated)	9%
Cc1ccc(SC2CCN(Cc3cc4n(n3)CCNC4)CC2)cc1	1%
COc1ccc(C(=O)N2C[C@@H](Oc3cccnc3)C[C@H]2C(N)=O)c(OC)c1	-1%
Cc1cn2cc(C(=O)N(CCCn3ccnc3)Cc3cccnc3)ccc2n1	4%
COc1cccc(C(=O)Nc2cccc(-c3nnc4n3CCCC4)c2)c1OC	-15%
CCNc1ccnc(NC2CCCc3c2cnn3-c2ccc(C)c(C)c2)n1 (configuration not stated)	3%
COc1ccc(C(=O)N2CCCCCCNC(=O)[C@@H]3C[C@@H](c4nc(-c5cccnc5)no4)C[C@@H]32)cc1	5%
O=C(Nc1ccc(F)c(Cl)c1)N1CCC(Oc2ncccc2C(=O)N2CCCCC2)C1 (configuration not stated)	-2%
CC(C)CN1C(=O)c2cccn2CC1C(=O)N1CCCC1 (configuration not stated)	-7%
Cc1nn(Cc2ccccc2)c(C)c1[C@@H]1C=C[C@@H](NC(=O)CC2(CC(=O)O)CCCC2)C1	1%
COc1ccc(-c2noc(CC3CCN(C(=O)c4ccc(OC)c(OC)c4)CC3)n2)cc1	3.5µM*
O=C(NCC1CC1)c1c(OCC2CC2)cc(=O)n2c1CCCCC2	3%
CC1=NS(=O)(=O)N(Cc2ccc(Cl)cc2)C=C1C(=O)O	3%
O=C(CCc1nc2ccc(Cl)cc2[nH]1)NCCc1noc(-c2cccnc2)n1	3%
CN(Cc1ccccn1)C1CCOc2ccccc21 (configuration not stated)	-1%[70.6 µM]
CCc1noc([C@@H]2CC(F)(F)CN2)n1	-2%
COCCN1C(=O)c2ccccc2C(C(=O)Nc2nc(C(=O)OC)c(C(C)C)s2)C12CCCC2 (configuration not stated)	4%
CCN(CC)CC[C@H]1CN(C(=O)Nc2ccccc2)CC[C@H]1CC(=O)O	0%[70.6 µM]
COc1ccc(C(=O)N2CCC3(CC2)NC(=O)c2ccccc2O3)cc1	0%[70.6 µM]
O=C(c1cccs1)N1CCC2(CC1)NC(=O)N(Cc1ccc(F)cc1)C2=O	-11%
Cc1nc(N2CCCCC2)n(CC(=O)Nc2ccc(Cl)cc2)c(=O)c1C	3%
O=C(CCc1ccccc1)N1CC(Oc2ccc(-c3noc(C4CC4)n3)cc2)C1	14µM*
CCCS(=O)(=O)N1CCC(N2CC(OCC3CC3)C23CCOCC3)CC1 (configuration not stated)	-3%
O=C1CCN(C(=O)C2CCN(C(=O)c3cccs3)CC2)CCCCCCN1	2%
N#Cc1ccc(N2C[C@@H]3OCC(=O)N(CC4CCCCC4)[C@@H]3C2)nc1	-27%[70.6 µM]
CNC(=O)c1cc[nH]c1C1CCCN(C(=O)c2noc(C)c2Cn2cccn2)C1 (configuration not stated)	11%
CN1CCCCCC(O)c2cc(C(=O)N3CCN(C4CCCCC4)CC3)ccc21 (configuration not stated)	1%
COCCc1nncn1C1CCN(S(=O)(=O)c2cc(F)ccc2F)CC1	0%
O=C(Nc1cccc(C(F)(F)F)c1)N1CC2CC(C1)[C@H]1CCCC(=O)N1C2 (some centres not stated)	-2%
COc1ccc(-c2nc3c(c(-c4ccccc4)n2)CN([S+](=O)([O-])c2c(C)noc2C)CC3)cc1	3%
COc1ccccc1CN1Cc2cc(NC(=O)c3ccc(C#N)cc3)ccc2OC(C)C1=O (configuration not stated)	-20%
CCn1ccc(C(=O)N2CCC3(CC2)NCCc2c3[nH]c3ccccc23)n1	-11%
Cc1nc(C2CCCCN2C(=O)c2ccco2)n[nH]1 (configuration not stated)	4%
(next part)
SMILES	hNpr1 antagonist
COc1ccc([C@@H]2CN(C(=O)CCc3c(C)noc3C)C[C@H]2N(C)C)cc1	6%
COCC(=O)Nc1ccc([C@H]2OCC(=O)N[C@@H]2CO)cc1	7%[70.6 µM]
CCn1cc(CN2C[C@@H]3C(=O)N(Cc4ccc5c(c4)OCO5)C(=O)[C@@H]3C2)cn1	-17%
O=C(NCc1cccc(C(F)(F)F)c1)c1ccc2nccn2c1	-12%[70.6 µM]
CC(C)CNC(=O)CN1CCOc2c(O)cc(-c3cccc(Cl)c3)cc2C1	-21%
CCCNC(=O)CC(c1ccccc1OC)c1c[nH]c2c(CC)cccc12 (configuration not stated)	-4%
O=C(NCc1nnc2ccc(-c3ccc(F)cc3)nn12)c1cccc(C(F)(F)F)c1	1%
COCCn1ccc2c(C3=CCOCC3)nc(-c3cccc(C(N)=O)c3)cc21	-3%[70.6 µM]
CCC(=O)N1CCC2(CC1)CC(N1CCN(CC(C)C)CC1)CCO2 (configuration not stated)	5%
C=CCn1nc(C(=O)N2CCOCC2)c2c1CCC(NCC1(c3ccccc3)CCCCC1)C2 (configuration not stated)	4%
C[C@H](O)c1c(-c2ccc(F)cc2)noc1C(=O)N1CCC1	0%[70.6 µM]
CCOc1ccc(C(=O)N2CCCN(c3cc(-c4ccc(F)cc4)[nH]n3)CC2)cc1	22µM*
O=C(Nc1ccsc1)O[C@@H]1CO[C@H]2[C@@H]1OC[C@@H]2Nc1nccc(-c2cccc(F)c2)n1	-17%
Cc1cn2nc(C(=O)Nc3ccc4c(c3)OCO4)cc2c(N(C)Cc2ccccc2)n1	11%
O=C(Cc1cccc(F)c1)N1CC(c2nnc(-c3ccncc3)o2)C2(CCOCC2)C1 (configuration not stated)	0%
CC(C)C(=O)NCCc1noc(C2CC2)n1	16%
Cc1ccc(C(=O)N2C3CCCC2CC(=O)C3)cc1	19%[70.6 µM]
NCCN1C(=O)CO[C@H](c2ccc(NC(=O)NCc3ccccc3)cc2)[C@H]1CO	6%[70.6 µM]
Cc1ccc(C)c(C(=O)N2[C@@H]3CC[C@H]2CC(NC(=O)c2cnc(C)cn2)C3)c1 (some centres not stated)	1%
O=C(O)CCC(=O)N1CCC(N(Cc2ccccc2)C2CCOCC2)CC1	-17%
COCCOC1CCN(C(=O)c2c[nH]c3ccccc23)CC1	-18%
O=C(CN1CCOC1=O)N1CCC2(CCC(=O)N(CCCn3ccnc3)C2)CC1	0%
Cn1nccc1CN1CC(Oc2ccc(F)c(F)c2)C1	19%[70.6 µM]
COc1ccccc1-c1ccc(CN2CCCC(c3nc4ccc(C)cc4c(=O)[nH]3)C2)cc1 (configuration not stated)	?
O=C(CCC1CCCC1)N1CCC2(CC1)CC(O)CCO2 (configuration not stated)	-3%
COc1ccc(-c2ccnc(-c3nnc(C)n3CCN3CCOCC3)c2)cc1OC	1%[70.6 µM]
O=C(C1CCN(C(=O)N2CC3CC(C2)[C@H]2CCCC(=O)N2C3)CC1)N1CCOCC1 (some centres not stated)	-1%
O=C(Nc1cccnc1)N1CCOC[C@H](Oc2ccc(C(F)(F)F)cc2)C1	-19%[70.6 µM]
COc1ccc(C(=O)N2C[C@@H]3C[C@H](C2)c2c(NC(=O)c4cncnc4)ccc(=O)n2C3)cc1	3%
Cc1ccc(NC(=O)N2C[C@@H](F)C[C@H]2C(=O)N2CCCCC2)cc1C	7%

Arranged by the number under hNpr1 antagonist (ascending): some entries from above.
SMILES	hNpr1 antagonist
COCCOC1CCN(C(=O)c2c[nH]c3ccccc23)CC1	-18%
O=C(CCC1CCCC1)N1CCC2(CC1)CC(O)CCO2 (configuration not stated)	-3%
Cc1ccc(C)c(C(=O)N2[C@@H]3CC[C@H]2CC(NC(=O)c2cnc(C)cn2)C3)c1 (some centres not stated)	1%
Cc1ccc(NC(=O)N2C[C@@H](F)C[C@H]2C(=O)N2CCCCC2)cc1C	7%
CC(C)C(=O)NCCc1noc(C2CC2)n1	16%

Later entries:
SMILES	hNpr1 antagonist
C[C@]1(CO)[C@H]2Cc3sc(-c4ccccc4)nc3[C@@H](CC(=O)O)[C@]2(C)CC[C@H]1O	9%[70.6 µM]
CC(C)Oc1ccc2c(NC(=O)c3cccnn3)nn(CC(F)(F)F)c2c1	4%
O=C(c1ccccc1Cl)N1CCC(n2cc(-c3nc(-c4ccccc4)no3)nn2)CC1	?
Cn1cc(CN[C@H]2C[C@H]3C(=O)NC[C@@H](CCC(=O)NCc4ccccc4)N3C2)c2ccccc21	0%
CCN1CCN(C(=O)CC2CCCN(c3cnn(CC4CC4)c(=O)c3)C2)CC1 (configuration not stated)	-1%
CC(C)CNc1nccc(C2(c3ccccc3Cl)CCNCC2)n1	-6%
O=C(NCC1COc2ncncc2C(=O)N1Cc1ccccc1)c1ccn[nH]1 (configuration not stated)	-4%[70.6 µM]
Cc1nn(C)c(C)c1S(=O)(=O)NC1CCc2nn(CC3CC3)c(=O)n2CC1 (configuration not stated)	0%
O=C(O)CCC1CCCN(S(=O)(=O)c2cccc(F)c2)C1 (configuration not stated)	0%
CCCn1ccnc1-c1c(-c2ccccc2)ncn1CCCC(=O)OC	4%
CN(C(=O)CCc1ccc2c(c1)OCO2)C1CCCN(C2Cc3ccccc3C2)C1 (configuration not stated)	9%
COCCNC(=O)c1ccc2nccn2c1	-2%[70.6 µM]
CCCN1CCC[C@H]1c1nc(-c2ccc(NCCOC)nc2)no1	5%[70.6 µM]
Cc1ccccc1CNC(=O)CN1CCC2(CC1)NC(=O)CC2C(=O)O (configuration not stated)	1%
Cc1oc(C(C)C)cc1C(=O)N1CC[C@@](O)(C2CCOCC2)[C@H](C)C1	0%

3 compounds from above, arranged by heavy-atom count, lowest first.
SMILES	hNpr1 antagonist
COCCNC(=O)c1ccc2nccn2c1	-2%[70.6 µM]
O=C(O)CCC1CCCN(S(=O)(=O)c2cccc(F)c2)C1 (configuration not stated)	0%
C[C@]1(CO)[C@H]2Cc3sc(-c4ccccc4)nc3[C@@H](CC(=O)O)[C@]2(C)CC[C@H]1O	9%[70.6 µM]

Another view of some results above:
hNpr1 antagonist,mol
4%,CCCn1ccnc1-c1c(-c2ccccc2)ncn1CCCC(=O)OC
9%,CN(C(=O)CCc1ccc2c(c1)OCO2)C1CCCN(C2Cc3ccccc3C2)C1 (configuration not stated)
-2%[70.6 µM],COCCNC(=O)c1ccc2nccn2c1

Going on with the list.
SMILES	hNpr1 antagonist
Cc1noc2c(NCCCn3ccnc3)cc(-c3cccc(C(F)(F)F)c3)nc12	0%[70.6 µM]
COc1cccc(C(=O)N2CCC3(CC2)NC(=O)N(Cc2ccccc2)C3=O)c1	-4%
COc1cccc(CC(=O)NC2CCN(c3cc(-c4ccccc4)[nH]n3)CC2)c1	-26%
Cc1ccccc1[C@@H]1CN(Cc2cnn(CCC(=O)O)c2)C[C@H]1C(=O)O	2%
Cc1cc(C[C@@H]2COC[C@@H]2NC(=O)CCc2c(C)nc3ncnn3c2C)on1	7%
CCCc1noc(-c2ccn3c(CNC(=O)C(C)Oc4ccccc4)nnc3c2)n1 (configuration not stated)	3%
CSCCCN1CC[C@@H](NC(=O)c2ccncc2)[C@H](O)C1	1%

Compound activity deposited in PubChem BioAssay by National Center for Advancing Translational Sciences (NCATS).

The list is partial. The share of hits here may be higher or lower than overall.
